# Screening data (PubChem BioAssay)
# MARV entry inh – qHTS for inhibitors of binding or entry into cells for Marburg Virus. Marburg virus pseudotyped entry inhibition, cell reporter; control for the full effect not named in the record; about a third of the inactives were read at about 46 µM. Potency, µM (series often up to 37.8 µM), without a hit: at the highest dose activity change, negative = inhibition, most hits filed as inhibitors. 300,000 compounds, 1.8% hits. AID 540276, 2011; active = well fitted inhibition curve with a large enough effect; inconclusive = small, poorly fitted or top-dose-only effect, or effect the other way; inactive = flat fitted curve, though single readings scatter; tested in HEK293 cells; about a fifth of its hits are not listed in these tables; also: % is scaled to controls: 0 for no effect and ±100 for the full control effect; luciferase read-out
# Lassa entry inh – qHTS for Inhibitors of binding or entry into cells for Lassa Virus. Lassa virus pseudotype entry inhibition, cell reporter; control for the full effect not named in the record. Potency, µM (series often up to 37.9 µM), without a hit: at the top dose activity change, negative = inhibition, usual class: inhibitors. 300,000 compounds, 1.2% hits; active means well fitted inhibition curve with a large enough effect; inconclusive means small, poorly fitted or top-dose-only effect, or effect the other way; inactive means flat fitted curve, though single readings scatter; tested in HEK293 cells; also: % is scaled to controls: 0 for no effect and ±100 for the full control effect; nearly all actives have a fitted effect of over 50% in size; luciferase read-out
# 2A StopGo – High Throughput Screening for Foot and Mouth Disease Virus Antivirals; human cells with a luciferase reporter of 2A StopGo recoding; control for the full effect not named in the record; Potency, µM (series often up to 57.9 µM), inactives show at the top dose signal change, negative = less light; 410,000 compounds, 1.2% hits; AID 1159524, 2015; active = well fitted falling curve with a large enough effect; inconclusive = small, poorly fitted or top-dose-only effect; inactive = no such curve, though single readings can be large or run the other way; tested in HEK293T cells; also: % is scaled to controls: 0 for no effect and ±100 for the full control effect; nearly all actives have a fitted effect of over 45% in size; luciferase light after 4 h
# NS1 function inh – qHTS Assay for Inhibitors of Influenza NS1 Protein Function; Potency, µM (top dose mostly 46.1 µM), for the others: at the highest dose activity, positive = more growth; S. cerevisiae slowed by influenza A NS1, growth recovery by OD600; 270,000 compounds, 0.4% hits; also: actives are rising curves; nearly all actives have a fitted effect of over 50% in size
#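 Compounds were scored for reversing the slow growth caused by influenza A NS1 in S. cerevisiae, measured by optical density at 600 nm. Assay medium contained 2% galactose at pH 6.0; NS1-free yeast of the same strain were the positive control.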
# SARS PLP yeast – qHTS of Yeast-based Assay for SARS-CoV PLP; S. cerevisiae expressing SARS-CoV PLpro, growth rescue; control for the full effect not named in the record; Potency, µM (titrated, usually from 32.9 µM), without a hit: at the top dose activity, positive = growth rescue; 330,000 compounds, 0.19% hits; AID 485353, 2010; also: 0% is about no effect; nearly all actives have a fitted effect of over 55% in size; growth read by luminescence after 48 h
# RE007 growth inh – qHTS Assay for Inhibitors of the HIV-1 protein Vpr | Potency, µM (top dose mostly 92.2 µM), for the others: at the top dose activity change, negative = less growth | S. pombe RE007 Vpr strain, BacTiter-Glo ATP luminescence, 24 h; control for the full effect not named in the record | 360,000 compounds, 0.21% hits; active = well fitted falling curve with a large enough effect; inconclusive = small, poorly fitted or top-dose-only effect; inactive = no such curve, though single readings can be large or run the other way;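 also: % is scaled to controls: 0 for no effect and ±100 for the full control effect; nearly all actives have a fitted effect of over 50% in size; the assay follows cell death caused by Vpr and the record does not say whether a fall means rescue or toxicity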
#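 Fission yeast RE007 carrying one integrated HIV-1 vpr copy, seeded at OD 0.01 in PMG+AL medium with 23 nL pinned compound. Grown 24 h at 30 degrees; viability read by BacTiter-Glo luminescence after 5 min.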
# Cruzain Triton – qHTS Assay for Promiscuous and Specific Inhibitors of Cruzain (with detergent) | Cruzipain (Trypanosoma cruzi), P25779 | Potency, µM, for inactives: max response, negative = inhibition, most hits filed as inhibitors | AID 1478, 2009 | purified cruzain, Z-FR-AMC fluorescence, 0.01% Triton | 200,000 compounds, 0.43% hits; active = well fitted curve in the direction sought with a large enough effect; inconclusive = small, poorly fitted or top-dose-only effect, or another doubt; inactive = no such curve, though single readings can be large; an effect the other way counts as inactive or inconclusive;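 also: plate controls were neutral wells for no effect and buffer without enzyme for full effect; nearly all actives have a fitted effect of over 40% in size; top concentration of the series not given in the record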
# Target sequence (P25779 123-467 limits assumed): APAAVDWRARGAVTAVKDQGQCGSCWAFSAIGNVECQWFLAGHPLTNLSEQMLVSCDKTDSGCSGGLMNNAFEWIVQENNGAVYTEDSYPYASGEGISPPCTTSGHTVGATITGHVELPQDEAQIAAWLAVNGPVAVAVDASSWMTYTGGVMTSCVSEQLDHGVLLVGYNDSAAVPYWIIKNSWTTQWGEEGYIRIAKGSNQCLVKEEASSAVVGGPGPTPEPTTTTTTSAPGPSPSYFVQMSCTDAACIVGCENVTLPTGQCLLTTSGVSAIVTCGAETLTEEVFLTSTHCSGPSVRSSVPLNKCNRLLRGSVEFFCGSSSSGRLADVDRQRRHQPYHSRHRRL
#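 Detergent-containing run (0.01% Triton X-100) in acetate buffer pH 5.5 with 5 mM DTT: enzyme at 1.5 nM final, 15 min compound preincubation at room temperature, then 2 uM Z-FR-AMC substrate. Activity taken as 60 s fluorescence increase at 360/450 nm.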
# Cruzain inh noDet – qHTS Assay for Promiscuous and Specific Inhibitors of Cruzain (without detergent); purified cruzain, Z-FR-AMC fluorescence, no detergent; Potency, µM, for the others: max response, negative = inhibition, actives largely listed as inhibitors; 200,000 compounds, 2.3% hits; AID 1476, 2009; active = well fitted curve in the direction sought with a large enough effect; inconclusive = small, poorly fitted or top-dose-only effect, or another doubt; inactive = no such curve, though single readings can be large; an effect the other way counts as inactive or inconclusive;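 also: plate controls were enzyme without inhibitor for no effect and buffer without enzyme for full effect; nearly all actives have a fitted effect of over 40% in size; top concentration of the series not given in the record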
#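 Purified cruzain at 1.5 nM, pre-incubated 15 min with compound at room temperature in 100 mM sodium acetate pH 5.5, 5 mM DTT, 0.00005% Triton X-100. Reaction started with 2 uM Z-FR-AMC; AMC fluorescence increase over 60 s gives rate.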
# Active calls of the source: *; ? = inconclusive; . = no result given; & = joins results of further samples; [ ] = another dose, or the depositor's remark. Unless noted, calls follow the shape of the dose curve; as a rule, active means well fitted rising curve with a large enough effect; inconclusive means small, poorly fitted or top-dose-only effect; inactive means no such curve, though single readings can be large or run the other way. Potency is read from the fitted curve at half-maximal effect.
SMILES,MARV entry inh,Lassa entry inh,2A StopGo,NS1 function inh,SARS PLP yeast,RE007 growth inh,Cruzain Triton,Cruzain inh noDet
O=C(c1ccco1)N1CCCC(N2CCN(c3cccc(C(F)(F)F)c3)CC2)C1 (centres undefined),-16.2%[46.1 µM],?,-26.3%,-11.3%,-0.7%,-9.1%,.,.
COc1ccc(C)cc1S(=O)(=O)N(CC(=O)Nc1cccc([N+](=O)[O-])c1)c1ccc(C)c(C)c1,?,-0.2%,17.4%,6.5%,15.8%,2.2%,-5.6%,31.6µM*
CCCCCN1CC(=O)N2C(C)c3[nH]c4ccccc4c3C[C@H]2C1=O (some centres undefined),.,.,-2.0%,-2.1%,-2.4%,5.3%,.,.
NS(=O)(=O)c1ccc(N=C2C(=O)Nc3ccccc32)cc1,.,.,-20.2%,-0.3%&-1.1%,-0.9%,2.6%,-0.4%,10.7%
CC(=O)Nc1ccc(NC(=O)C(C)Oc2ccc(Cl)cc2Cl)cc1 (centres undefined),.,.,-10.1%,-33.2%,?,1.8%,.,.
Cc1ccc([C@@H]2[C@@H]3C(=O)N(c4ccccc4)C(=O)[C@@H]3[C@]3(C)C(=O)N(CC4CC4)CC(=O)N23)o1,.,.,6.1%,-1.0%,6.3%,10.5%,.,.
CCN(CC)CCCn1c2c(c(SCC(=O)Nc3ccc(C)c(F)c3)nc1=O)CCC2,?,4.2%,-2.7%,.,-3.0%,-1.2%,.,.
CCOC(=O)/C(=N/O)C1=NC(C)(C)Cc2cc(C)c(C)cc21,?,-9.6%,-20.4%,-0.4%,-0.2%,-0.5%,.,.
COc1ccccc1C/C(N)=N/OC(=O)/C=C/c1ccccc1,?,-22.5%,-14.2%,.,-33.2%,1.4%,.,.
O=C(CC1Sc2ccccc2NC1=O)Nc1ccccc1[N+](=O)[O-] (centres undefined),10.6%,0.0%,7.5%,5.7%,-9.3%,4.4%,-0.4%,1.9%
COc1ccc(C2C(C(=O)N3CCN(c4ccc(OC)cc4)CC3)c3ccccc3C(=O)N2C)cc1 (centres undefined),?,-33.5%,-21.5%,4.3%,5.3%,13.4%,-0.4%,12.9%
Cc1cc(C)c(C#N)c(SCC(=O)c2cccs2)n1,14.3%,3.1%,38.7%[activator],-4.8%,-8.2%,-9.9%,-4.4%,-7.4%
c1ccc(CCNc2nc(-c3ccccn3)cs2)cc1,0.2%,?,72.2%[activator],-52.8%,-3.9%,-11.2%,.,.
COc1ccc(CCNC(=O)C(=O)NCC(c2ccco2)S(=O)(=O)c2cccs2)cc1OC (centres undefined),.,-12.4%[46.1 µM],0.0%,.,.,.,-0.9%,17.2%
Cc1cc2oc(C(=O)Nc3c(C)n(C)n(-c4ccccc4)c3=O)c(C)c2cc1C,-29.6%[46.1 µM],-18.1%,-16.6%,-6.2%,2.8%,21.5%,-2.2%,-7.0%
Cc1ccc(-c2nnc(SCC(=O)NCCN3C(=O)CSC3=O)n2C)cc1,?,11.0%,2.1%,.,-1.4%,34.3%,.,.
CC(=O)c1c(C)nn(C(C)CC(=O)O)c1C (centres undefined),11.3%,-1.2%,-7.2%,3.6%,2.9%,3.3%,0.2%,16.8%
CC1=C2C(=O)C3C(CC=C4CC(O)CCC43C)C2CCC12OC1CC(C)CNC1C2C (centres undefined),?,-24.9%[46.1 µM],3.3%,-7.4%,-2.8%,-1.5%,.,.
C/C(=N\NC(=O)c1ccc2c(c1)OCO2)c1ccc(NC(=O)CCCC(=O)O)cc1,?,-7.5%[46.1 µM],-1.3%,-4.7%,16.3%,-4.7%,.,.
CCCNC(=S)Nc1ccc(Br)cc1,1.0%,6.1%,34.7%[activator],14.4%,?,-19.9%,2.3%,-3.9%
Nc1nonc1-n1nnc(C(=O)N/N=C/c2ccoc2)c1CSc1ccccc1,.,.,-12.0%,-1.3%,4.1%,-1.7%,.,.
COc1ccc(C(CC(=O)N2CCC3(CC2)OCCO3)NS(=O)(=O)c2ccc(C)cc2)cc1 (centres undefined),-4.3%&-4.3%,-7.7%,-9.5%,-19.8%,-0.3%,1.0%,0.9%,0.5%
CS(=O)(=O)c1ccc2nc(NC(=O)CN3CCC(Cc4ccccc4)CC3)sc2c1,-2.5%[46.1 µM],14.7%[46.1 µM],0.0%,-6.0%,-0.7%,-15.3%,.,.
Cc1occc1C(=O)Nc1ccc(S(=O)(=O)N2CCN(C)CC2)cc1,0.5%,-2.0%,2.4%,-6.4%,-4.2%,5.5%,0.5%,-9.4%
COc1ccc(/C=N/N2CCN(c3ccc(Cl)cc3)CC2)cc1O,-0.3%,-1.0%,-7.9%,-7.8%,-1.9%,-17.6%,.,.
CCOc1ccc(C2c3cc(OCC)c(OCC)cc3CC(=O)N2c2ccc(C(=O)O)cc2)cc1OCC (centres undefined),3.5%[46.1 µM],2.2%[46.1 µM],-5.5%,.,.,.,-5.4%,27.6%
Cc1ccc(S(=O)(=O)NCC(=O)N(CC(=O)NCc2ccco2)Cc2ccc(F)cc2)cc1,-16.7%[46.1 µM],6.1%,5.3%,5.2%,-0.7%,3.4%,.,.
CCOC(=O)/C(=N/Nc1ccc(OC)cc1)N1CCCc2ccccc21,?,-15.1%,-0.2%,-51.6%,-2.3%,80.3%,.,.
COCCc1ncc(CN2CCC(C(=O)Nc3cccc(-c4cscn4)c3)CC2)cn1,.,.,?,-0.2%,2.8%,-4.6%,.,.
CC1CCCCN1C(=O)CSc1nc2ccccc2[nH]1 (centres undefined),14.8%[46.1 µM],11.5%,16.9%,.,-1.3%,2.7%,.,.
CCOC(=O)c1cnn(-c2cc(C)nc3c(-c4ccccc4)cnn23)c1N,?,9.7%,5.2%,-3.5%,-1.1%,-9.3%,0.8%,3.8%
O=C(CSc1ccccn1)Nc1cccc(NC(=O)CSc2ccccn2)n1,-0.3%,0.2%,.,6.4%,22.4%,7.1%,0.0%,-1.1%
O=C(N/N=C\c1ccoc1)c1ccco1,?,12.4%[46.1 µM],25.4%,-8.5%,-2.2%,13.5%,.,.
O=[N+]([O-])c1cccc(C(=Nc2ccccc2)NO)c1,?,-0.5%,-28.9%,-5.3%,22.4%,1.9%,2.2%,8.7%
Cc1ccc(NC(=O)COC(=O)C2CC2(Cl)Cl)cc1C (centres undefined),20.2%[46.1 µM],18.6%,10.5%,.,-0.1%,3.1%,.,.
C[C@@H](CN1C(=O)C(=O)NC[C@@H]1C)NC(=O)CC12CC3CC(CC(C3)C1)C2,.,.,0.9%,-5.4%,-9.9%,-4.7%,.,.
O=C(COc1ccc(S(=O)(=O)NCc2ccccc2)cc1Cl)NCc1ccccn1,-10.9%[46.1 µM],.,43.9%[activator],0.6%,1.4%,2.4%,.,.
CCCC1=Nc2cc(C(=O)NC3CCC(C)CC3)ccc2Sc2ccccc21 (centres undefined),?,?,4.8%,.,.,.,-3.9%,-27.3%
COc1cc(NC(=O)c2cc(C)on2)cc(C(=O)Nc2cccc(C(F)(F)F)c2)c1,.,.,?,-14.9%,-6.3%,-11.0%&-13.4%,.,.
COc1ccc(/C=c2/sc3nc(-c4ccccc4)c(-c4ccccc4)n3c2=O)cc1,40.8%,-0.6%,-14.4%,5.1%,0.7%,-2.4%,-5.4%,6.31µM*
Cc1ccc(C(=O)/C=C/c2ccc(-c3ccc(C)cc3)o2)cc1,0.7%,-25.8%,2.4%,-0.2%,-9.2%,3.6%,-20.3%,-19.7%
CC(C)CC1(C)NC(=O)NC1=O (centres undefined),10.0%,-1.5%,-4.6%,0.5%,5.1%,-4.4%,2.0%,1.2%
Cc1c(/C(O)=C2/C(=O)C(=O)N(CCN(C)C)C2c2ccc(C(C)C)cc2)cnn1-c1ccccc1 (centres undefined),-3.5%[46.1 µM],9.0%[46.1 µM],-25.2%,-0.8%,-1.0%,-24.6%,.,.
CCCCN1CC(c2nc3ccccc3n2CCCCOc2ccc(C)cc2C)CC1=O (centres undefined),6.9%[46.1 µM],-0.2%[46.1 µM],39.8µM*,.,.,.,-4.8%,1.9%
O=S(=O)(c1cccc(C(F)(F)F)c1)N1CCN(c2ccccc2)CC1,-7.8%,7.4%,-28.2%,-5.5%,0.2%,-3.4%,-1.4%,-7.9%
CSc1cccc(NC(=O)c2ccc3c(c2)CCCN3S(C)(=O)=O)c1,17.5%[46.1 µM],?,?,.,.,.,-5.1%,6.1%
Cc1cc(=O)[nH]c(N2CCCNCC2)n1,-0.4%[46.1 µM],?,-6.1%,0.8%,0.5%,0.3%,.,.
O=C(CCl)NN=C(c1ccccc1)c1ccccc1,-1.0%[46.1 µM],-15.1%[46.1 µM],25.1µM*,0.3%,2.5%,-12.5%,.,.
CC(=O)c1ccc(OC(=O)N(C)c2ccccc2)cc1,3.4%[46.1 µM],11.3%[46.1 µM],28.0%,-3.9%,-3.3%,-8.3%,.,.
COc1ccc(Br)cc1CN(C)C(=O)c1ccc2c(c1)NC(=O)C(C)S2 (centres undefined),27.1%[46.1 µM],2.8%,24.9%,.,-1.5%,22.8%,.,.
O=C(NNC(=O)c1ccc([N+](=O)[O-])o1)c1ccccc1,?,-29.8%,-14.4%,-2.1%,3.9%,3.8%,-3.7%,5.5%
Cc1cc(C)c2nc(N3CCCN(C(=O)c4ccco4)CC3)c(C#N)cc2c1,-5.1%,-10.4%,-15.1%,6.1%,7.9%,0.3%[3.69 µM],?,?
COc1ccc(Cl)cc1C(=O)Nn1c(C)nc2ccccc2c1=O,28.5%,4.6%,.,-9.9%,1.6%,10.1%,5.2%,1.6%
